Lassa entry inh = blocks Lassa virus binding to or entry into cells; Lassa virus pseudotype entry inhibition, cell reporter; control for the full effect not named in the record; Potency, µM (top dose mostly 37.9 µM), for inactives: at the top dose activity change, negative = inhibition, usual class: inhibitors; 1.2% of 300,000 active; AID 540256; active means well fitted inhibition curve with a large enough effect; inconclusive means small, poorly fitted or top-dose-only effect, or effect the other way; inactive means flat fitted curve, though single readings scatter; tested in HEK293 cells; also: % is scaled to controls: 0 for no effect and ±100 for the full control effect; nearly all actives have a fitted effect of over 50% in size; luciferase read-out
Cruzain inh Det = cruzain (T. cruzi) inhibition with detergent | P25779 | purified cruzain, Z-FR-AMC fluorescence, 0.01% Triton | Potency, µM, inactives show max response, negative = inhibition, hits mostly inhibitors | 0.43% of 200,000 active; active = well fitted curve in the direction sought with a large enough effect; inconclusive = small, poorly fitted or top-dose-only effect, or another doubt; inactive = no such curve, though single readings can be large; an effect the other way counts as inactive or inconclusive;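 also: plate controls were neutral wells for no effect and buffer without enzyme for full effect; nearly all actives have a fitted effect of over 40% in size; top concentration of the series not given in the record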
Target sequence (P25779 123-467 limits assumed): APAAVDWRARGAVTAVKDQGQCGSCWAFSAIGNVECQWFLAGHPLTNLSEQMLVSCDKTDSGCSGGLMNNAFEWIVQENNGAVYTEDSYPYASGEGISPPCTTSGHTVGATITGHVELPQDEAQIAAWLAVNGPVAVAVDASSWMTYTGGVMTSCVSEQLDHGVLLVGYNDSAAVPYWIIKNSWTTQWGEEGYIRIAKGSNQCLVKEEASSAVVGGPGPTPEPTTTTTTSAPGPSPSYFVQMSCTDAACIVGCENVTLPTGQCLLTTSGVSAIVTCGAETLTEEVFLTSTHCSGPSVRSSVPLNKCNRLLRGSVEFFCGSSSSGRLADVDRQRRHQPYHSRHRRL
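Compounds were screened in titration against cruzain (1.5 nM) with 0.01% Triton X-100 to counter colloidal aggregation. Activity was the AMC fluorescence increase over 60 s after adding 2 uM Z-FR-AMC at pH 5.5.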
Cruzain inh noDet = inhibitors of Trypanosoma cruzi cruzain without detergent; 2.3% of 200,000 active; purified cruzain, Z-FR-AMC fluorescence, no detergent; P25779; Potency, µM, for the others: max response, negative = inhibition, usual class: inhibitors; active = well fitted curve in the direction sought with a large enough effect; inconclusive = small, poorly fitted or top-dose-only effect, or another doubt; inactive = no such curve, though single readings can be large; an effect the other way counts as inactive or inconclusive;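 also: plate controls were enzyme without inhibitor for no effect and buffer without enzyme for full effect; nearly all actives have a fitted effect of over 40% in size; top concentration of the series not given in the record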
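Purified cruzain at 1.5 nM, pre-incubated 15 min with compound at room temperature in 100 mM sodium acetate pH 5.5, 5 mM DTT, 0.00005% Triton X-100. Reaction started with 2 uM Z-FR-AMC; AMC fluorescence increase over 60 s gives rate.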
SARS PLP yeast = inhibitors of SARS-CoV papain-like protease in yeast. S. cerevisiae expressing SARS-CoV PLpro, growth rescue; control for the full effect not named in the record. Potency, µM (doses to about 32.9 µM), inactives show at the top dose activity, positive = growth rescue. 0.19% of 330,000 active; also: 0% is about no effect; nearly all actives have a fitted effect of over 55% in size; growth read by luminescence after 48 h
RE007 growth inh = less growth of the S. pombe RE007 Vpr strain | 0.21% of 360,000 active | Potency, µM (doses to about 92.2 µM), for the others: at the top dose activity change, negative = less growth | S. pombe RE007 Vpr strain, BacTiter-Glo ATP luminescence, 24 h; control for the full effect not named in the record | AID 651644; active = well fitted falling curve with a large enough effect; inconclusive = small, poorly fitted or top-dose-only effect; inactive = no such curve, though single readings can be large or run the other way;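 also: % is scaled to controls: 0 for no effect and ±100 for the full control effect; nearly all actives have a fitted effect of over 50% in size; the assay follows cell death caused by Vpr and the record does not say whether a fall means rescue or toxicity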
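Fission yeast strain RE007, carrying one chromosomally integrated HIV-1 vpr copy, was seeded at OD 0.01 in PMG+AL medium with 23 nL pinned compound. After 24 h at 30 °C and 99% humidity, viability was read by BacTiter-Glo luminescence.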
Marburg entry inh = blocks Marburg virus binding to or entry into cells; AID 540276; 1.8% of 300,000 active; Potency, µM (highest dose often 37.8 µM), inactives show at the top dose activity change, negative = inhibition, usual class: inhibitors; Marburg virus pseudotyped entry inhibition, cell reporter; control for the full effect not named in the record; about a third of the inactives were read at about 46 µM; active = well fitted inhibition curve with a large enough effect; inconclusive = small, poorly fitted or top-dose-only effect, or effect the other way; inactive = flat fitted curve, though single readings scatter; tested in HEK293 cells; about a fifth of its hits are not listed in these tables; also: % is scaled to controls: 0 for no effect and ±100 for the full control effect; luciferase read-out
2A StopGo = lowers the luciferase signal of an FMDV 2A StopGo reporter; human cells with a luciferase reporter of 2A StopGo recoding; control for the full effect not named in the record; Potency, µM (series often up to 57.9 µM), for inactives: at the highest dose signal change, negative = less light; 1.2% of 410,000 active; active = well fitted falling curve with a large enough effect; inconclusive = small, poorly fitted or top-dose-only effect; inactive = no such curve, though single readings can be large or run the other way; tested in HEK293T cells; also: % is scaled to controls: 0 for no effect and ±100 for the full control effect; nearly all actives have a fitted effect of over 45% in size; luciferase light after 4 h
NS1 inh = influenza NS1 inhibition | S. cerevisiae slowed by influenza A NS1, growth recovery by OD600 | Potency, µM (series often up to 46.1 µM), inactives show at the top dose activity, positive = more growth | 0.4% of 270,000 active; also: actives are rising curves; nearly all actives have a fitted effect of over 50% in size
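OD600 was taken as the measure of yeast growth restored by compound in an NS1-expressing S. cerevisiae strain. Cells had been washed out of glucose medium and diluted 1:100 into galactose -URA medium, pH 6.0.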
* hit, by the source's call; ? = inconclusive; . = no result given; & = joins results of further samples; [ ] = another dose, or the depositor's remark. Unless noted, calls follow the shape of the dose curve; as a rule, active means well fitted rising curve with a large enough effect; inconclusive means small, poorly fitted or top-dose-only effect; inactive means no such curve, though single readings can be large or run the other way. Potency is read from the fitted curve at half-maximal effect.

smiles	Lassa entry inh	Cruzain inh Det	Cruzain inh noDet	SARS PLP yeast	RE007 growth inh	Marburg entry inh	2A StopGo	NS1 inh
O=c1cc(-c2ccccc2)c2cc(Cl)c(O)c(CN3CCOCC3)c2o1	.	.	.	0%	4%	.	-23%	4%
O=S1(=O)N=C(N2CCN(Cc3ccc4c(c3)OCO4)CC2)c2ccccc21	-14%	-3.7%	-1%	-1%	3%	?	.	2%
COc1ccccc1-c1cc2nc(C)c(CCC(=O)NCc3ccco3)c(C)n2n1	.	-2.8%	?	-8%	6%	-4%	-7%	-2%
CCN(CC)S(=O)(=O)c1ccc(N2CC(C(=O)NCc3cccnc3)CC2=O)cc1 (stereo not given)	-25%[46.1 µM]	.	.	5%	-6%	?	16%	17%
Cc1ccc(-c2nc(CN(C)C)cc(CN(C)C)c2O)cc1	26%	-6.4%	-16%	-3%	3%	-17%[46.1 µM]	14%	-7%
CC1CCN(S(=O)(=O)c2ccc(S(=O)(=O)N3CCN4CCCC4C3)cc2)CC1 (stereo not given)	.	5.7%	3%	7%	.	-5%	.	6%
Cc1ccc(N(CCC#N)C(=O)COC(=O)c2cc(C)oc2C)cc1	-11%	.	.	-4%	-14%	-2%	-7%	.
CCCCCCNc1nc2c(c(=O)n(C)c(=O)n2C)n1Cc1cccc(C)c1	-6%[46.1 µM]	0.6%	5%	.	.	.	?	.
COc1ccc(OC)c(NC(=O)NNC(=O)c2cc3occc3[nH]2)c1	.	.	.	-11%	15%	.	12%	16%
CC(=O)c1ccccc1C(=O)N(C)C1CCCN(Cc2ccccc2F)C1 (stereo not given)	4%	.	.	1%	0%	9%	-3%	4%
CCOC(=O)C1=C(C)NC(=O)NC1c1cc2c(cc1Br)OCO2 (stereo not given)	2%	-2.3%	-5%	-4%	21%	?	-16%	4%
CCOC(=O)c1c(C)[nH]c(O)c1C=Nc1ccc(C(F)(F)F)cc1	16%	-3.3%	-1%	7%	-5%	?	-7%	-4%
CCOC(=O)C1CCCN(C(=O)C2CCN(S(=O)(=O)c3c(C)noc3/C=C/c3ccccc3F)CC2)C1 (stereo not given)	-20%[46.1 µM]	-1.4%	?	9%	7%	.	-10%&-24%	-2%
O=C(NCC(=O)N1CCN(S(=O)(=O)c2ccccc2F)CC1)c1ccc2c(c1)OCO2	-2%	.	.	6%	9%	-4%[46.1 µM]	-10%	.
NC(=O)c1ccsc1NC(=O)CCS(=O)(=O)c1ccccc1	0%	.	.	1%	-9%	-2%	1%	5%
Nc1cc(S(=O)(=O)N2CCCCC2)ccc1N1CCCCC1	-12%	.	.	0%	1%	-22%	20%	.
Cc1ccc(NC(=O)c2ccc(COc3ccc4c(c3)CCC4)cc2)c(C)c1	11%	1.3%	?	23%	-3%	?	5%	3%
Cc1ccc(C(=O)N/N=C/c2nc3ccccc3n2C)cc1	?	-4.8%	-19%	-11%	-5%	-22%	.	-1%
CN(C)S(=O)(=O)c1ccc(C(=O)OCc2ccc([N+](=O)[O-])cc2)cc1	.	.	.	-3%	15%	.	16%	8%
C(=N\c1nc2ccccc2n1Cc1ccccc1)/c1cccs1	-4%	-12%	21%	-17%	-8%	-14%	.	3%
Cc1ccc(C(=O)CN2C(=O)NC3(CCCCCC3)C2=O)c(C)c1	11%	.	.	3%	-9%	3%	0%	.
CCc1nn(CC(=O)NCCCN2CCN(C)CC2)c(=O)c2cc3sccc3n12	.	.	.	1%	2%	.	-15%	4%
O=C(c1ccc(CS(=O)(=O)c2c(Cl)cccc2Cl)o1)N1CCCC1	.	-0.7%	5%	0%	6%	.	-21%	1%
CC(=O)NC1=NN(C(C)=O)C(c2ccc(C)cc2)S1 (stereo not given)	13%	.	.	1%	5%	?	19%	8%
COc1cccc(C2=NOC(C(=O)Nc3ccc4c(c3)OCO4)C2)c1 (stereo not given)	15%	.	.	-6%	5%	15%	40%[activator]	.
Fc1ccc(NC(=S)Nc2ccccc2Cl)cc1	?	.	.	2%	-15%	9%[46.1 µM]	17%	-1%
O=C1c2cccc3cc([N+](=O)[O-])cc(c23)C(=O)N1c1nncs1	23%[46.1 µM]	.	.	.	-6%	-7%[46.1 µM]	14%	.
COc1cccc(N2CCN(C(=O)c3c(C)oc4ncnc(N5CCCCC5)c34)CC2)c1	15%[46.1 µM]	2.0%	1%	.	.	.	0%	.
O=C1C2C(c3ccccc3)C=CC(c3ccccc3)C2C(=O)N1CCO (stereo not given)	?	3.0%	?	-1%	25%	2%	.	-47%
Cc1ccccc1NP1(=O)OCCCN1Cc1ccccc1Cl (stereo not given)	18%	.	.	.	-1%	-28%	-15%	.
O=C1OCCC1Sc1nnnn1-c1ccccc1 (stereo not given)	?	5.5%	-7%	3%	9%	16%	16%	-1%
COc1ccc(CCNS(=O)(=O)c2c(C)[nH]c(C)c2C(=O)N2CCCCC2)cc1OC	5%[46.1 µM]	.	.	10%	5%	30%[46.1 µM]	12%	-8%
OC(c1ccccc1)C(CN1CCOCC1)c1ccccc1 (stereo not given)	1%	.	.	3%	-7%	0%[46.1 µM]	6%	-3%
CCOc1ccc(CCNS(=O)(=O)c2c(C)nc3sc(C)cn3c2=O)cc1OCC	16%[46.1 µM]	-4.8%	-1%	.	.	.	-12%	.
Cc1ccnc(NS(=O)(=O)c2ccc(NC(=O)C3CCCCC3C(=O)O)cc2)n1 (stereo not given)	-1%	5.9%	-11%	-1%	5%	-6%	-1%	-9%
Cc1cc(C)cc(NC(=O)c2ccc(NC(=O)C3C4CC5OC(=O)C3C5C4)cc2)c1 (stereo not given)	-26%	.	.	1%	-4%	-1%[46.1 µM]	-25%	2%
CCOc1ccccc1C1CC(c2ccc(Cl)cc2)Nc2nc(N)nn21 (stereo not given)	.	-1.3%	8%	-5%	-4%	.	-30%	9%
O=C(O)c1cccc(Nc2c3ccccc3nc3ccccc23)c1	.	.	.	-18%	-8%	.	-6%	-131%
Cc1cccc(C)c1NC(=O)C(=O)NCCc1c[nH]c2ccccc12	-7%[46.1 µM]	.	.	0%	6%	?	-21%	.
CN(CC(=O)Nc1c(Cl)cccc1Cl)C(=O)c1ccc2ccccc2n1	-7%	.	.	-1%	0%	27%	3%	.
Cc1ccc2nc(SCCC(=O)O)cc(C)c2c1	7%	0.1%	-6%	-6%	-8%	?	6%	-99%
CC1CC(C)CN(S(=O)(=O)c2ccc(C(=O)OCC(=O)NCCN3C(=O)CSC3=O)cc2)C1 (stereo not given)	-2%	.	.	-2%	32%	1%[46.1 µM]	-4%	.
Cc1occc1C(=O)NC(C)C(C)(C)C (stereo not given)	-11%[14.3 µM]	2.5%	6%	.	-15%	8%	0%	-4%
CCN1CCC(O)(/C=C/c2ccc(C(C)C)cc2)C(C(=O)/C=C/c2ccc(C(C)C)cc2)C1 (stereo not given)	14µM*	.	.	.	-12%	?	32µM*	.
Cc1c(NP(=O)(C(C)(C)C)C(C)(C)C)c(=O)n(-c2ccccc2)n1C	?	.	.	0%	23%	?	-8%	.
O=C(O)c1ccc(N2C(=O)CCCC2=O)cc1	-4%[46.1 µM]	.	.	2%	3%	3%[46.1 µM]	-14%	5%
COc1ccc(Cc2nc(C)cc(Cl)n2)cc1[N+](=O)[O-]	-3%	.	.	-3%	-6%	-5%	11%	0%
COc1cc2c(C(=O)N3CCN(c4cc(Cl)ccc4C)CC3)cn(CC(C)C)c(=O)c2cc1OC	-13%[46.1 µM]	0.1%	-15%	.	.	?	-9%	.
O=C(COC(=O)c1ccccc1NCCO)NNC(=O)c1cccs1	12%	.	.	?	14%	5%[46.1 µM]	-7%	.
CC(OC(=O)c1cccc(S(=O)(=O)N(C)C)c1)C(=O)NCc1ccc2c(c1)OCO2 (stereo not given)	4%	.	.	2%	-15%	3%	-10%	.
CCOC(=O)C1CCN(C(=O)/C=C/c2cccs2)CC1	20%	.	.	2%	2%	?	20%	.
CCSc1nnc(NC(=O)c2ccc(Br)s2)s1	2%	-1.9%	25µM*	-4%	-11%	0%	0%	-19%
O=C(CSc1nncn1-c1ccccc1F)NC1CC1	?	.	.	1%	-7%	?	29%	.
CCOC(=O)N1CCN(C(=O)c2cc3ccc(OC)cc3[nH]2)CC1	-2%[46.1 µM]	.	.	1%	-1%	12%[46.1 µM]	1%	-6%
O=C(CNc1n[nH]c(=O)[nH]c1=O)N/N=C/c1cccnc1	.	-0.2%	-6%	?	1%	.	0%	2%
Cc1ccc(CSCC(=O)N/N=C/c2sccc2C)cc1	-12%	-11%	-6%	-17%	-15%	-1%	15%	-64%
O=C1C2C3C=CC(C3)C2C(=O)N1c1ccc(-c2nc3ccccc3o2)cc1 (stereo not given)	?	2.8%	0%	-9%	2%	?	35%[activator]	3%
C[C@]12CCC3C(CC[C@H]4[C@@H](O)[C@H](O)CC[C@]34C)C1CCC2=O (stereo not given in full)	15%[46.1 µM]	.	.	.	-18%	0%[46.1 µM]	-10%	.
COc1cccc(C=Nc2cc(C)cc(C)c2)c1O	22%	-2.0%	-6%	22%	-7%	?	0%	6%
CCCN1Cc2cccc(C(=O)Nc3ccc(OC)c(OC)c3)c2C1=O	13%	.	.	.	5%	3%[46.1 µM]	-20%	0%

(continued)
smiles	Lassa entry inh	Cruzain inh Det	Cruzain inh noDet	SARS PLP yeast	RE007 growth inh	Marburg entry inh	2A StopGo	NS1 inh
COc1ccc(-c2onc(C)c2C)cc1S(=O)(=O)NCc1cccs1	-27%[46.1 µM]	-3.2%	-17%	.	.	.	64%[activator]	.
CSc1nccc(Oc2ccc(C#N)cc2)n1	8%[46.1 µM]	-3.0%	6%	-20%	1%	0%[46.1 µM]	-7%	-1%
O=C(CN1CCN(Cc2ccccc2)CC1)Nc1ccc(N2CCOCC2)cc1	1%	.	.	5%	-13%	12%[46.1 µM]	-3%	.
S=c1[nH]nc(-c2ccco2)n1/N=C/c1cccc(Cl)c1Cl	3%	-8.0%	-15%	6%	.	?	-19%	23%

Assay outcomes from PubChem.
